Screening results deposited in PubChem by National Center for Advancing Translational Sciences (NCATS).
TRPML1 ag = human mucolipin-1 channel agonism; Q9GZU1; TRPML1-expressing cells, Ca2+ dye fluorescence, FDSS; host cell line not named in the record; reference of the full effect not given here; activation, % (concentration not given with the values); actives 0.12% (n = 410,000); in the data active = activation above about 50%; inconclusive = about 30% to 50%; inactive = below about 30%; note: 0% is about no effect; the text of the record puts the active cut at 80%
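Agonist activity was taken from a 110 s kinetic Ca2+ dye read on the FDSS after pinning compounds onto TRPML1-DL cells. The cells were seeded at 1,500/well with Tet inducer, incubated about 16 h, then dye-loaded at room temperature.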
TRPV1 potentiator = potentiators of human vanilloid receptor 1 (TRPV1) | actives 0.02% (n = 320,000) | Q8NER1 | TRPV1-expressing cells, Fluo-8 calcium influx, capsaicin EC20 potentiation; host cell line not named in the record; control for the full effect not named in the record | potentiation, % at 8.33 µM; active means potentiation above 80%; inconclusive means 30% to 80%; inactive means below 30%; note: 0% is about no effect
Target sequence (Q8NER1 whole entry, looked up): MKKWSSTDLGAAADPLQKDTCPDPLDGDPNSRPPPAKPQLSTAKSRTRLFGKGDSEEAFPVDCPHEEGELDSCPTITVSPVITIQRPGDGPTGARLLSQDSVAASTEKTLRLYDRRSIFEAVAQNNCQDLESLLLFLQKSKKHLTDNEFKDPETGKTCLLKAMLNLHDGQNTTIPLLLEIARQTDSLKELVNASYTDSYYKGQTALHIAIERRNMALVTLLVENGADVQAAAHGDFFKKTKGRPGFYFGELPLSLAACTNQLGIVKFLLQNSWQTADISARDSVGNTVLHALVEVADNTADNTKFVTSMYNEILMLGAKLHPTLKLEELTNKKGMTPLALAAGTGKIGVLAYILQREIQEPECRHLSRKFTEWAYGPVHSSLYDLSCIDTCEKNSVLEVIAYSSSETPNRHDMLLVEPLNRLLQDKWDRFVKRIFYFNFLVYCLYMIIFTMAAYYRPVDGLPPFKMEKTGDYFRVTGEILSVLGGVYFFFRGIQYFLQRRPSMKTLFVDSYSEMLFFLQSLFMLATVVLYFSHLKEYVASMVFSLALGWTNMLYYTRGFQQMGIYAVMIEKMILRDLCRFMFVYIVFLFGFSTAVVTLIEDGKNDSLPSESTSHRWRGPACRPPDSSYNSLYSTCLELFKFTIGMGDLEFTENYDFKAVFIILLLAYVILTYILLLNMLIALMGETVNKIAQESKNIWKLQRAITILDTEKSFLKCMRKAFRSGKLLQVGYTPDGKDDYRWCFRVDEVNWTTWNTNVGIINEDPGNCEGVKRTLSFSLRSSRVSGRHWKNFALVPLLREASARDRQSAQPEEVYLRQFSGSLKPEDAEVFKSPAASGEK
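Fluo-8 calcium influx in TRPV1-expressing cells, kinetic read (ex 480/em 520 nm). Compound added and read 3 min for agonist activity, followed by capsaicin at EC20 final and 2 min further read for enhancement.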
PINK1 expr mod = modulators of PINK1 expression. PINK1 immunofluorescence, high-content cytometry, 24 h. Potency, µM (top dose mostly 76.6 µM), for inactives: top-dose activation (PINK1 increase), usual class: activators. actives 0.2% (n = 410,000). AID 624263; active = well fitted activation curve with a large enough effect; inconclusive = small, poorly fitted or top-dose-only effect; inactive = flat fitted curve, though single readings scatter; cell line not stated here;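 note: potency is the fitted concentration of half-maximal effect; % of control where 0% means no effect; nearly all actives have a fitted effect of over 65% in size; a mitochondrial uncoupler was the plate control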
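A stable cell line was treated with compounds at 5 concentrations for 24 hours, with CCCP as control. PINK1 levels and mitochondrial localization were measured by immunofluorescence with mitochondrial, cell and nuclear markers after fixation, read by laser-scanning cytometry.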
ClpP mod = qHTS Assay for Activators of ClpP | ATP-dependent Clp protease proteolytic subunit (Bacillus subtilis (strain 168)), P80244 | purified B. subtilis ClpP, FRET peptide cleavage, 20 min | Potency, µM (titrated, usually from 57.5 µM), for the others: top-dose activity change, negative = active | actives 1.9% (n = 340,000) | AID 651965, 2013; active = well fitted falling curve with a large enough effect; inconclusive = small, poorly fitted or top-dose-only effect; inactive = no such curve, though single readings can be large or run the other way; note: potency is the fitted concentration of half-maximal effect; the source files actives as falling curves though it sought activators and does not explain the sign; nearly all actives have a fitted effect of over 65% in size; many hits overshoot -100%
Target sequence (P80244 whole entry, looked up): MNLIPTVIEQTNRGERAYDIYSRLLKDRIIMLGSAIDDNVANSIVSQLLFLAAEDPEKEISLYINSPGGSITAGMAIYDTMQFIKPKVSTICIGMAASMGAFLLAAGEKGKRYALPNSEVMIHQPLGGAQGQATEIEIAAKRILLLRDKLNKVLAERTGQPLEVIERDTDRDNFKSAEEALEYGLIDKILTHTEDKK
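Buffer: 100 mM Tris/HCl pH8, 100 mM KCl, 0.05% low protease BSA, 2.5% glycerol, 0.01% Tween-20. ClpP 10 microg/mL final; 20 min RT; delta FRET normalized to ADEP and DMSO controls.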
Sfp PPTase inh = Sfp phosphopantetheinyl transferase inhibition; Q9F4F7; Biochemical Sfp PPTase activity, qHTS; Potency, µM, for the others: max response, negative = inhibition, usual class: inhibitors; actives 3.5% (n = 310,000); active = well fitted inhibition curve with a large enough effect; inconclusive = small, poorly fitted or top-dose-only effect, or another doubt; inactive = no such curve, though single readings can be large or run the other way;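 note: the enzyme is Sfp with the accession as filed and its product quenches rhodamine fluorescence; potency is the fitted concentration of half-maximal effect; 0% = enzyme reaction without inhibitor and -100% = no enzyme wells; top concentration of the series not given in the record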
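Compounds were incubated with enzyme (final 15 nM) for 15 min at room temperature before substrate addition started the reaction. Fluorescence at 525 nm excitation, 598 nm emission was recorded immediately and after 30 minutes.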
TRPML1 inh = blocks the human TRPML1 channel | Q9GZU1 | actives 0.02% (n = 390,000) | activity change, negative = inhibition, % (concentration not given with the values) | TRPML1-inducible cells, Ca2+ dye fluorescence, FDSS; hits give low values; inhibition of EC80 agonist-evoked calcium signal; in the data active means activity change below about -50%; inconclusive means about -30% to -50%; inactive means above about -30%;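 note: stimulus is agonist 54-4 at its EC80 concentration; % is set by controls: 0 for no effect and ±100 for the full control effect; compound concentration not given in the record; the text of the record puts the active cut at -80%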
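Calcium fluorescence in TRPML1-DL cells induced overnight with Tet: a 110 s read after compound pin addition, then a 110 s antagonist read after challenge with 54-4 at 4 uM final (EC80).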
Menin MLL FP FL = displaces fluorescein MLL peptide from human menin; Fluorescence polarization, fluorescein-MLL peptide displacement from menin; FP activity change, % at 61.4 µM; 290,000 tested, under 10 active; AID 1766; inconclusive = falling polarisation curve, or a change in total fluorescence; inactive = total fluorescence flat and polarisation flat or rising; no compound was filed as active; the % refers to the polarisation; negative = inhibition;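 note: % of control where 0% means no effect; inhibitors lower the polarisation; unlabelled MLL peptide was the positive control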
Active calls of the source: *; u = inconclusive; x = no result given; & = joins results of further samples; [ ] = remark or other dose.

SMILES | TRPML1 ag | TRPV1 potentiator | PINK1 expr mod | ClpP mod | Sfp PPTase inh | TRPML1 inh | Menin MLL FP FL
CN1CCN(C(=O)/C(=C/c2ccc(N(C)C)cc2)NC(=O)c2ccccc2)CC1 | 1.3 | 7.0 | -1.7% | x | -0.3% | 46.1 | x
Cc1ccc(S(=O)(=O)N(C)C)cc1NC(=O)Nc1c(-c2ccccc2)noc1C | 1.3 | -2.9 | 0.3% | 0.3% | 10.1% | -1.1 | 2.1
COc1ccc(CN2C(=O)c3cccnc3C2=O)cc1S(=O)(=O)N(C)Cc1ccco1 | -1.2 | u | 0.7% | -0.3% | -0.4% | 5.3 | 0.3
O=C1/C(=C/c2ccc(Cl)cc2)NC(=S)N1Cc1cccnc1 | 0.8 | -2.5 | 9.1% | x | 8.3% | 9.9 | 0.6
Cc1ccc(C(=O)Nc2nnc(-c3ccco3)o2)cc1 | -0.4 | 7.0 | 1.9% | -3.1% | 13.1% | 19.5 | 3.5
COc1ncc2nc(-c3cn(C)c4ccccc34)c(=O)n(-c3ccccc3)c2n1 | x | x | 15.5% | x | 8.2% | x | u
O=C(CCCC(=O)N(CC(=O)NC1CCCCC1)Cc1ccccc1)Nc1ccccn1 | -1.2 | 13.5 | 0.3% | 0.2% | 16.2% | -7.8 | -1.6
Oc1ccc(-c2nc3ccc4ccccc4c3c3c2CCC3)cc1O | -0.2 | 3.3 | 5.7% | -2.4% | -9.1% | -1.3 | 2.5
CCOc1ccc(C(CC(=O)O)NC(=O)C(c2ccccc2)c2ccccc2)cc1OC (configuration not stated) | 0.0 | -6.1 | 0.5% | 0.7% | x | -5.1 | x
CC(=O)Nc1ccc(/C(C)=N/Nc2nc(Nc3cccc4ccccc34)nc(N3CCOCC3)n2)cc1 | 0.4 | 23.0 | -0.8% | 0.5% | 5.9% | 12.8 | 5.7
O=C(Nc1nc(-c2ccccc2)cs1)C1c2ccccc2Oc2ccccc21 | -0.9 | 29.2 | 8.5% | 0.3% | -1.8% | -6.4 | 3.4
COc1ccc(CC(=O)Nc2ccc3nc(Nc4cccc(Cl)c4)cc(C)c3c2)cc1 | -0.6 | x | 0.4% | 4.4% | x | 10.7 | x
O=C(/C=C/c1ccc(S(=O)(=O)N2CCOCC2)cc1)NCc1ccc(Cl)cc1 | -0.2 | 4.3 | 2.1% | 0.3% | -3.1% | 11.9 | 9.4
COc1ccc(CN2C(=O)C(CC(=O)NCc3ccco3)CC(C(=O)N(C)C)=C2C)cc1 (configuration not stated) | -0.5 | x | -0.1% | 0.1% | x | 5.5 | x
Fc1ccc(C(c2ccc(F)cc2)N2CCN(C/C=C/c3ccccc3)CC2)cc1 | 17.7 | -5.0 | u | 0.5% | u | -0.4 | 6.1&4.1&5.5&-1.5
CCCCOc1ccc(-c2cc(C(F)(F)F)c(C#N)c(SCC(=O)O)n2)cc1 | -0.2 | 14.0 | u | x | 9.8% | -1.4 | u
COC(=O)c1ccccc1NC(=O)Nc1nnc(N2CCC(C)CC2)s1 | 2.2&0.5 | 0.1 | -1.0%&0.0% | -4.5%&-4.3% | 5.4% | 39.0&-18.6 | -0.9
O=C(Nc1ccccc1F)C1CCCN(S(=O)(=O)c2ccc(-n3cnnn3)cc2)C1 (configuration not stated) | -0.4 | -2.7 | 1.5% | x | 16.0% | 0.5 | 0.7
COC(=O)c1cccc(NCN2C(=O)c3ccccc3C2=O)c1 | -0.5 | 12.8 | -0.6% | 9.1% | 18.8% | -2.0 | 6.5
C(=NC12CN3CN(CN(C3)C1)C2)c1ccc2c(c1)OCO2 | 0.3 | 2.0 | 6.8%[38.3 µM] | -11.9% | 17.8% | -9.0 | 1.1
O=C(NCCS(=O)(=O)N1CCN(c2ccccc2)CC1)c1ccccc1F | 0.1 | -3.4 | -0.1% | x | x | -3.7 | x
Cc1cccc(C)c1OCc1cc(C(=O)N(Cc2c(C)nn(C)c2C)C2CC2)no1 | 1.1 | -11.8 | 0.2% | 0.2% | -2.1% | 7.6 | 1.1
CC/C(=C/c1sc2ccc(C)cc2[n+]1CCCS(=O)(=O)[O-])SC | -0.3 | 9.4 | 1.4% | x | 50.1µM* | 30.2 | u
CCN(CC)CCCNc1nc(CN2CCOCC2)nc2sc3c(c12)CCC3 | -0.4 | 2.9 | -0.5% | x | 12.4% | 35.1 | 1.8
O=C(NCc1nnc(SCC(=O)N2CCCCCC2)o1)c1ccccc1F | -0.4 | -0.5 | 1.1% | 0.4% | 14.7% | 13.7 | x
N#Cc1ccc(CN2CC3(CCN(C(=O)c4cccc(F)c4)CC3)C2)cc1 | x | x | 0.3% | x | 12.8% | x | -6.2
CCOC(=O)C1=C(COC(=O)c2cccc(Cl)c2)NC(=O)NC1C (configuration not stated) | 1.2 | -20.4 | 0.3% | -0.5% | 5.6% | 27.3 | x
CCc1ccc(NC(=O)CSc2nccn2C2CCCC2)cc1 | 1.7 | x | -0.2% | -2.6% | x | 0.7 | x
COc1ccc(C(C(=O)NC2CCCC2)N(CC2CCCO2)C(=O)Cc2cccs2)cc1OC (configuration not stated) | 1.1 | 1.3 | 0.4% | -3.1% | 8.2% | -7.6 | -1.2
Cc1cccc(C(=O)NC(=S)NC(C)c2ccccc2)c1 (configuration not stated) | 3.2 | x | 5.2% | 0.5% | x | -8.6 | x

In the list so far, these have a cyano group:
SMILES | TRPML1 ag | TRPV1 potentiator | PINK1 expr mod | ClpP mod | Sfp PPTase inh | TRPML1 inh | Menin MLL FP FL
CCCCOc1ccc(-c2cc(C(F)(F)F)c(C#N)c(SCC(=O)O)n2)cc1 | -0.2 | 14.0 | u | x | 9.8% | -1.4 | u
N#Cc1ccc(CN2CC3(CCN(C(=O)c4cccc(F)c4)CC3)C2)cc1 | x | x | 0.3% | x | 12.8% | x | -6.2

Next part
SMILES | TRPML1 ag | TRPV1 potentiator | PINK1 expr mod | ClpP mod | Sfp PPTase inh | TRPML1 inh | Menin MLL FP FL
CC(C)CSc1nc2c(c(=O)[nH]c(=O)n2C)n1CCc1ccccc1 | 0.2 | -14.8 | 11.3% | 3.9% | 2.3% | 8.0 | 4.2
COc1cccc(OCC(O)CN2CCN(c3ccccc3)CC2)c1 (configuration not stated) | 1.4&0.3 | -2.2&-0.3 | -2.4%&0.1% | 1.2%&0.1% | 0.4%&2.6% | -18.1&0.0 | -1.7&6.1
CCCOc1cccc(C(=O)N(Cc2cc(OC)c(OC)c(OC)c2)C2CCS(=O)(=O)C2)c1 (configuration not stated) | 0.6 | x | 0.1% | 0.4% | x | 28.8 | x
NC(=O)c1ccsc1NC(=O)c1coc2ccccc2c1=O | 0.8 | -3.1 | 13.3% | -4.2% | 7.1% | -3.6 | 0.0
CN(C)S(=O)(=O)c1ccc(C(=O)Nc2ccc(S(=O)(=O)NC3=NCCCCC3)cc2)cc1 | -0.4 | -22.9 | -0.2% | 0.2% | 5.1% | 1.3 | 2.1
CCOc1ccc(OCC)c(S(=O)(=O)NCc2ccc3c(c2)OCO3)c1 | -0.3 | 2.9 | 0.3% | 0.6% | -3.3% | -8.7 | 2.8
Cc1ccc(Cl)cc1N1CCN(C(=O)c2cccc3c(=O)c(C)c(-c4ccccc4)oc23)CC1 | 6.0 | 3.5 | -1.3% | x | -14.9% | 39.3 | 0.4
O=C(O)c1cccc(-n2cccc2/C=N/O)c1 | -0.9 | -1.3 | -2.6% | 0.4% | 14.5% | 8.0 | 4.4
CC(=O)NS(=O)(=O)c1ccc(NC(=O)c2ccc3c(c2)NC(=O)CS3)cc1 | -0.7 | x | 0.5% | x | x | -1.0 | x
COc1ccccc1CCCNC(=O)C1CCC(=O)N(CCCN2CCCC2=O)C1 (configuration not stated) | -0.7 | 24.6 | -0.5% | 1.5% | 12.5% | -0.8 | x
COC(=O)Cc1csc(NCc2ccccc2)n1 | -0.8 | u | 0.1% | x | -10.2% | 4.1 | 0.4
COc1ccc([C@H]2C[C@@H](O)[C@H](n3cc(C4CC4)nn3)CN2CC2CCCCC2)cc1 | -0.7 | x | 5.8% | -5.0% | x | -11.7 | x
O=C(OCc1cc(=O)n2ccsc2n1)c1ccccc1O | -0.2 | x | 0.9% | -1.7% | x | 14.7 | x
Nc1[nH]c(C(=O)c2ccccc2)c(-c2ccc(Cl)cc2)c1C(=O)NCc1ccco1 | -0.2 | x | 0.0% | -3.2% | x | x | x
COc1ccc(NC(=O)CCCC(=O)c2ccccc2)cc1OC | 0.6 | -7.0 | 2.8% | -3.5% | 9.3% | 0.8 | 1.0
CC(=O)c1ccc(N2CCN(c3ncnc4c3c(-c3ccccc3)cn4-c3ccc(Cl)cc3)CC2)cc1 | 0.3 | x | 9.7% | u | x | 18.7 | x
Cc1ccn2c(Cc3ccccc3)c(-c3ccccc3)nc2c1 | 0.7 | x | 0.8% | -19.4% | x | 39.4 | x
CC(NC(=O)c1ccc(NC(=O)c2ccco2)cc1)c1ccccc1 (configuration not stated) | -0.3 | u | 22.7% | -14.5% | 4.2% | 13.4 | 7.5
CCc1ccc(OCC(=O)Nc2ncc3c(n2)CC(C)(C)CC3=O)cc1 | -0.2 | -17.6 | u | -1.4% | 5.0% | 4.3 | -0.1
CCOc1ccc(CNC(=O)Cn2c(=O)c3cccn3c3ccc(F)cc32)cc1OC | 0.6 | x | 0.4% | u | x | -9.7 | x
CCCn1cc(S(=O)(=O)c2ccccc2)c(=O)c2cc(OCC)ccc21 | 1.7 | -21.2 | -0.4% | -5.7% | -1.8% | -24.8 | x
O=C(NCCCN1CCOCC1)c1cc(-c2ccccc2)nc2ccccc12 | -0.5 | -9.7 | -0.3% | -19.7% | x | -4.5 | x
COc1ccc([C@H]2CC(=O)C=C(c3cc4ccccc4s3)C2)cc1 | -0.3 | 16.3 | 0.5% | -0.7% | x | 0.1 | x
COc1ccc(-c2c(C#N)c(N)nc3sc(C(=O)c4ccccc4)c(N)c23)cc1 | 1.8 | 10.5 | -1.0% | -2.0% | -4.5% | 22.7 | u
O=C(O)C(Cc1c[nH]c2ccccc12)NS(=O)(=O)c1ccc(Br)cc1 (configuration not stated) | 0.5 | -7.9 | -2.2% | x | -0.4% | 1.7 | 0.0
O=C(NCc1n[nH]c(=S)n1-c1ccc(F)cc1)c1ccc(S(=O)(=O)N2CCCC2)cc1 | -0.1 | -10.9 | -1.7%[38.3 µM] | -0.4% | -28.0% | 2.2 | 1.3
O=C(NCc1ccc(F)cc1)c1cc(C2CCCN(C(=O)c3ccccn3)C2)on1 (configuration not stated) | -0.8 | x | -0.2% | 1.7% | x | x | x
